VDR inhibitor: vitamin D3 receptor (human) inhibition. P11473. VDR-SRC2-3 peptide fluorescence polarization, 2 h. Potency, µM, without a hit: max response, negative = inhibition, most hits filed as inhibitors. 400,000 tested, 0.93% active. AID 504847; active means well fitted inhibition curve with a large enough effect; inconclusive means small, poorly fitted or top-dose-only effect, or another doubt; inactive means no such curve, though single readings can be large or run the other way; further: series mostly up to about 120 µM
Target sequence (P11473 whole entry, looked up): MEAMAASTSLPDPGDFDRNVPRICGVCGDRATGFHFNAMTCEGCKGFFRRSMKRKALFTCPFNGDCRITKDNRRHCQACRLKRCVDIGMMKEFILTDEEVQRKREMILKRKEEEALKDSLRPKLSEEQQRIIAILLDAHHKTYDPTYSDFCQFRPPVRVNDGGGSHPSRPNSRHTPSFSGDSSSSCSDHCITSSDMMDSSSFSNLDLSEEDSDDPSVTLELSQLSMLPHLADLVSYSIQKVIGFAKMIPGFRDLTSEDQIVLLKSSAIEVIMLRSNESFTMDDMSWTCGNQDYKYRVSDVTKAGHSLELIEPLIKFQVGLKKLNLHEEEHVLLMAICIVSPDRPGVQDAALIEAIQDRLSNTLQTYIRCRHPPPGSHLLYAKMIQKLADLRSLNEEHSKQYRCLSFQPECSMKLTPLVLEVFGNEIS
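Fluorescence polarization assay measuring small-molecule disruption of VDR binding to the coregulator peptide SRC2-3. Compounds were pin-transferred (23 nl) into the reagent mix and incubated 2 h at room temperature before reading.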
Numbers without * were called inactive; ? = inconclusive; & = joins results of further samples. On the % scale 0 is the no-effect control and ±100 the full control effect; potency means the concentration at half of the fitted maximal effect.

canonical_smiles | VDR inhibitor
COc1ccc(N2C(=O)CC(Sc3nc(C)cc(C)n3)C2=O)cc1OC (stereo not given) | -22%
Cc1c(NC(=O)c2cc(C(C)C)on2)c(=O)n(-c2ccccc2)n1C | -15%
Cc1ccc(CNc2ccc3nnc(-c4ccccc4)n3n2)cc1 | -12%
CCOC(=O)C1CCCN(C(=O)c2cc3cc4ccc(OC)cc4nc3o2)C1 (stereo not given) | 8%
Nc1cc(N)nc(SCC(=O)NCC(=O)Nc2ccc(F)c(F)c2F)n1 | -6%
CCc1ccc(NC(=O)CCCc2nc(-c3ccco3)no2)cc1 | -14%
O=C(O)C1CC=CCC1C(=O)Nc1cccnc1 (stereo not given) | 12%
CC(C)(C)S(=O)(=O)N1C[C@@H]2C(=CC[C@H]3C(=O)N(c4ccccc4)C(=O)[C@@H]23)[C@@H]1CCO | 2%
Cc1nc(SCC(=O)Nc2ccccn2)n[nH]1 | 21%
COc1ccc(CCCc2nnc(SCC(=O)Nc3ccccc3F)o2)cc1 | -14%
CCc1cnc2c(c1SCC(=O)Nc1ccc(C)cc1C)c(=O)n(C)c(=O)n2C | 5%
Cc1nnc(SCC(=O)Nc2nsc(-c3ccc(C(C)(C)C)cc3)n2)s1 | ?
COc1cccc(Cn2c(=O)c(-c3cccs3)nc3cnc(N4CCN(C)CC4)nc32)c1 | -19%
COc1ccc(C)cc1NC(=O)CCNC(=O)c1ccco1 | -2%
CC(=O)NC(CCS(C)(=O)=O)C(=O)Nc1ccccc1 (stereo not given) | 12%
CCOc1ccc(CNC(=O)C2Cc3ccccc3N2C(=O)CC)cc1OC (stereo not given) | 5%
O=C(CSc1ncccn1)NCc1ccc2c(c1)OCO2 | -7%
O=C(NC1CC1)c1ccc2c(Cl)c3c(nc2c1)CCCC3 | -8%
O=C(Nc1sc2c(c1C(=O)O)CCCC2)C(=O)N1CCOCC1 | -12%
O=C(Nc1ccccc1C(=O)NCCc1ccc(O)cc1)c1ccco1 | 1%
COc1cccc(-n2c(N)c(-c3nc4ccccc4[nH]3)sc2=S)c1 | 4%
COc1cccc2c(=O)n(CC(=O)Nc3ccc(F)cc3)ccc12 | -10%
CC1(c2ccccc2)NC(=O)N(CC(=O)Nc2ccc3c(c2)CCC3)C1=O (stereo not given) | -8%
S=C(NCc1ccccc1)Nc1cccc(Cl)c1 | -18%
O=[N+]([O-])c1cc(-n2cnnn2)ccc1N1CCC(Cc2ccccc2)CC1 | 7%
S=c1[nH]nc(Cn2cnc3ccccc32)n1-c1ccccc1 | 1%
O=C(CSc1ncn[nH]1)NCCc1ccc(Cl)cc1Cl | -14%
Cc1cccc(CSCc2ccc(C(=O)NCCc3ccccc3)o2)c1 | 0%
O=C1CCC(C(=O)N2CCc3ccccc3C2)CN1CCCN1CCOCC1 (stereo not given) | -2%
COc1ccc(OC)c(CCNC(=O)CN2C(=O)CCSc3ccccc32)c1 | 10%
Clc1cccc(NCc2ccccc2)n1 | 4%
O=[N+]([O-])c1cccc(S(=O)(=O)c2ccc(NCCO)c([N+](=O)[O-])c2)c1 | ?
COc1ccc(OCc2nnc(SC(C)C(=O)Nc3ccc(N4CCOCC4)cc3)n2C)cc1 (stereo not given) | -11%
COc1c(O)cc(O)cc1O | 5%
CN(C)S(=O)(=O)c1ccc(C(=O)Nc2cccc(C(=O)O)c2)cc1 | 20%
O=C(CSc1nc2c(c(=O)[nH]1)CCC2)Nc1ccccc1Cl | -11%
COc1cc(Br)cc(-c2nc3c(c(=O)[nH]c(=O)n3Cc3ccccc3)n2C)c1O | -14%
COC(=O)c1ccccc1NC(=O)Cn1c(=O)n(CCC(=O)NC2CCN(Cc3ccccc3)CC2)c(=O)c2ccccc21 | 5%
O=S(=O)(c1ccc2[nH]c3c(c2c1)CCCC3)N1CCN(c2cccc(C(F)(F)F)c2)CC1 | 4%
O=C(COc1cccnc1[N+](=O)[O-])Nc1ccc(F)cc1 | 2%
CC(C)(C)C(=O)Nc1ccc(C(=O)Nc2cccc(Oc3ccc(C(=O)O)c(C(=O)O)c3)c2)cc1 | -4%
CC(C)CC1C(=O)N(Cc2cn(CC3CCCCC3)nn2)CCS(=O)(=O)N1Cc1ccc(-c2cccc(C#N)c2)cc1 (stereo not given) | -7%
COC(=O)c1cccc(NC(=O)CSc2nc(O)c(-c3ccccc3)c(=O)[nH]2)c1 | 8%
COc1ccc(OC)c(NC(=O)COC(=O)Cc2ccc(Br)cc2)c1 | 5%
Cc1cc(C)nc(SCc2csc(-c3ccccc3)n2)n1 | -6%
COc1cc(OC)cc(C(=O)OCC(=O)NC(c2ccccc2)c2ccccc2)c1 | 1%
CC(=O)Nc1ccc(NC(=S)NC(=O)/C=C/c2ccccc2)cc1 | 4%
N#Cc1c(NC(=O)CSc2nc3ccccc3c(=O)n2Cc2ccco2)sc2c1CCCC2 | 14%
COc1ccc(OC)c(CN2CCSCC2)c1 | -19%
CCc1nnc(NS(=O)(=O)c2ccc(NC(=O)c3cccc(Br)c3)cc2)s1 | 0%
C=CCN1C(=O)C(CC(=O)Nc2ccc(C)cc2)SC1=Nc1c(C)n(C)n(-c2ccccc2)c1=O (stereo not given) | 20%
COc1ccc(-c2csc(N3CCN(c4cc(C)nc5ccccc45)CC3)n2)cc1OC | 5%
COC(=O)c1sccc1NC(=O)c1cnc2cc(C)nn2c1C | -2%
O=C(COCc1cc(-c2cccs2)on1)NCc1ccc(F)cc1 | 14%
CCOc1cccc(C=Nc2cc(C)cc(C)c2O)c1O | ?
CC(=O)NCCc1c[nH]c2ccc(O)cc12 | 1%&8%
CCOCCCn1c(=NC(=O)c2cccnc2)c(C(=O)OCC)cc2c(=O)n3ccccc3nc21 | ?
COc1ccc2cc(/C(C)=N/NC(=O)C3CC3)ccc2c1 | 2%
Cc1onc(-c2ccccc2Cl)c1C(=O)Nc1nnc(-c2ccc(Br)cc2)s1 | -3%
COc1ccc(Cn2c(O)c(/C=N/NC(=O)c3cccnc3)c3ccccc3c2=O)cc1 | -24%

Further compounds follow.
canonical_smiles | VDR inhibitor
COc1ccc(Cn2c(CCC(=O)Nc3ccc(CC#N)cc3)nc3cccnc32)cc1 | 16%
COc1ccc(C(=O)NC(=S)Nc2ccc3[nH]c(=O)[nH]c3c2)c(OC)c1 | -7%
O=C(c1cccc2nccnc12)N1CCCC(Nc2ccc(F)c(F)c2)C1 (stereo not given) | -16%
C=CCSc1nn2c(=O)c3ccccc3nc2s1 | -2%
Cc1nc2cnc(OCc3ccccc3)nc2n(Cc2ccc(F)cc2)c1=O | 3%
COc1ccc(-n2c(Cn3c(=O)sc4ccccc43)nnc2SCC(=O)N2CCCCC2)cc1 | 13%
CCOC(=O)c1sc(NC(=O)c2cc3c(s2)CCC(C)C3)nc1C (stereo not given) | 8%
COc1nc(OC)nc(N2CCC(C(=O)NC3CC3)CC2)n1 | -3%
Cc1ccc(NC(=O)Nc2nnc(SCC(=O)N3CCC(C)CC3)s2)cc1 | -6%
O=C1CC(NNc2nc3ccccc3s2)C(=O)N1c1ccccc1 (stereo not given) | 6%
Cc1ccc(S(=O)(=O)N(C)c2ccc(OC(=O)COc3ccccc3)cc2)cc1 | 1%
CC(=O)NC(=S)NNC(=O)COc1ccc([N+](=O)[O-])cc1 | -4%
c1cn(-c2ncnc3sc4c(c23)CCCC4)cn1 | -13%
O=C(O)c1ccc(-n2c(-c3ccc(Br)cc3)n[nH]c2=S)cc1 | -8%
COc1ccc(NC(=S)Nc2ccc(S(N)(=O)=O)cc2)c(C)c1 | -8%
Cc1cccc(CSCc2ccc(C(=O)NCC3CCCO3)o2)c1 (stereo not given) | -13%
COc1cccc(C(=O)NC2=NC(c3ccc(N(C)C)cc3)CC(=O)N2)c1 (stereo not given) | -5%
O=C(/C=C\Nc1ccc2c(c1)OCO2)c1ccc2c(c1)OCO2 | ?
COc1ccc2c(c1)c(C(=O)N/N=C/c1cccs1)c(C)n2C | -11%
NC(=O)CC[C@@H]1NC(=O)[C@H](CO)NC(=O)c2cc([N+](=O)[O-])cc(I)c2OCC[C@@H](C(N)=O)NC1=O | 9%
CCN(CC)CC#CCOC(=O)C(O)(c1ccccc1)C1CCCCC1 (stereo not given) | -1%&-10%
Cc1ccc(C(=O)Nc2ccccc2OC(F)F)cc1 | 14%
Cc1ccc(C)n1-c1cccc(C(=O)Nc2ccccc2)c1 | -10%
COc1ccc(Cl)cc1NC(=O)C1CC(c2c(F)cccc2Cl)=NO1 (stereo not given) | -4%
O=C(CN1CCCCC1)N/N=C/c1cccc(C(F)(F)F)c1 | -1%
CCN(CC(=O)Nc1ccccc1C(F)(F)F)C(=O)c1ccc2[nH]c3c(c2c1)CC(C)CC3 (stereo not given) | 1%
COc1cccc(CC2(CO)CCCN(Cc3nc(-c4cccs4)oc3C)C2)c1 (stereo not given) | -17%
COc1ccc(NC(=O)CSc2nc(-c3ccco3)cc(C(F)(F)F)n2)c(OC)c1 | 2%
COc1ccccc1CN1C(=O)C2CC=CCC2C1=O (stereo not given) | 5%
NC(=O)CC(NC(=O)Cc1cccc2ccccc12)c1ccc(N2CCc3ccccc3C2)c([N+](=O)[O-])c1 (stereo not given) | -6%
CC(C1CC1)N(Cc1ccccc1)C(=S)Nc1ccccc1 (stereo not given) | -14%
O=C(Nc1csnn1)c1csnn1 | 0%
COc1ccc(OC)c(NC(=O)Nc2c(C)n(C)n(-c3ccccc3)c2=O)c1 | -2%
Cc1ccccc1NC(=S)NCCO | -6%
CC(OC(=O)/C=C/c1ccco1)C(=O)Nc1cccc([N+](=O)[O-])c1 (stereo not given) | -7%
Cc1ccc(SCC(=O)Nc2ccc3c(c2)C(=O)N(C)C3=O)cc1 | 6%
CCOC(=O)C1(Cc2ccccc2C)CCCN(C(=O)c2ccc(COC)o2)C1 (stereo not given) | -13%
CCSc1nnc2ccc(-c3ccc(OC)c(OC)c3)nn12 | ?
Cc1cc(C(=O)OCC(=O)c2ccc3c(c2)OCCO3)c(C)o1 | -2%
COc1ccc2c(CC(=O)OCC(=O)Nc3sc4c(c3C#N)CCC(C)C4)coc2c1 (stereo not given) | -10%
COc1ccc(C(CCN2CCOCC2)c2c(OC)cc(OC)c3c2OC(=O)CC3c2ccc(OC)cc2)cc1 (stereo not given) | -15%
CCCNC(=O)COC(=O)c1ccc(Cl)c(S(=O)(=O)N2CCCC2)c1 | -10%
COCCn1c(-c2ccc(OC(F)(F)C(F)C(F)(F)F)cc2)nc2c1c(=O)[nH]c(=O)n2CC(C)C (stereo not given) | -1%
OC[C@@H](O)[C@@H](O)CCc1ccccc1 | 5%
Cc1cc(C)c(NC(=O)CNC(=O)c2ccc(-n3cncn3)c([N+](=O)[O-])c2)c(C)c1 | 11%
COc1ccc(Cl)cc1NC(=O)c1cnc2sc(N3CCOCC3)nn2c1=O | -7%
Cc1nn(CC(=O)NCCc2ccccc2)c(C)c1[N+](=O)[O-] | -23%
CCC(CO)Oc1cc(NC(=O)c2ccc(N)cc2)c2ncn(C(C)C)c2c1 (stereo not given) | -14%
CCOCCCNC(=O)c1c[nH]c2ccc(S(=O)(=O)Nc3cccc(Cl)c3C)cc2c1=O | -6%
COC(=O)[C@@]12CCCN1[C@H](c1ccc(-c3ccc(F)cc3)cc1)[C@H]1C(=O)N(C)C(=O)[C@H]12 | 0%
NC(=O)CC(NC(=O)Cc1cccc2ccccc12)c1ccc(NCc2ccc(F)c(F)c2)c([N+](=O)[O-])c1 (stereo not given) | -9%
Cc1cc(C)nc(NS(=O)(=O)c2ccc(N=NN(C)C)cc2)n1 | 10%
O=C(O)CC1S/C(=N/N=C/c2ccccn2)NC1=O (stereo not given) | -5%
O=C(C(=O)N1CCN(c2ccc(F)cc2)CC1)N1CCCCC1 | ?
Cc1cc2ncn(/N=C/c3ccc([N+](=O)[O-])o3)c2cc1C | 16%
Cc1ccccc1OCC(=O)NCCCNC(=O)c1ccccn1 | -14%
COc1ccc(-c2noc(CSc3nc(C)cc(=O)[nH]3)n2)cc1OC | 3%
Cc1cc(N2CCCCC2)nc2ccc(NC(=O)/C=C/c3ccccc3OC(C)C)cc12 | -20%
O=C(N/N=C1/CCS(=O)(=O)c2ccc(F)cc21)c1cccnc1 | 9%
COc1ccccc1NCc1nnc(SCC(=O)N/N=C/c2ccco2)n1-c1ccc(Cl)cc1Cl | 17%

The listing continues:
canonical_smiles | VDR inhibitor
CC1=C(/C=C/C(C)=C/C=C/C(C)=C/C(=O)Nc2ccc(O)cc2)C(C)(C)CCC1 | -7%&-7%&2%&-7%&0%&3%&10%
Cc1cc(-c2ccccc2)cc(C)n1 | -16%
CCOC(=O)c1[nH]c(C)c(CCC(=O)Nc2ccc(Br)c(C)c2)c1C | 12%
COc1ccc(/C=N/NC(=O)c2nc(-c3ccccc3)cc(-c3ccccc3)n2)cc1 | 0%
COc1ccc(C(=O)N/C(=C\c2ccc3c(c2)OCO3)C(=O)N2CCOCC2)cc1 | 1%
Cc1ccc(C(=O)N2CCN(Cc3ccc4c(c3)OCO4)CC2)cc1C | -13%
CCOC(=O)c1c(C(=O)OCC)c(C)n(Cc2cc(OC)c(OC)c(OC)c2)c1C | -16%
Cc1ccc(S(=O)(=O)NC(=O)COc2ccccc2C)cc1 | 5%

Reformatted with each value named: 4 of the compounds above.
> CCOC(=O)c1[nH]c(C)c(CCC(=O)Nc2ccc(Br)c(C)c2)c1C
  VDR inhibitor: 12%

> COc1ccc(/C=N/NC(=O)c2nc(-c3ccccc3)cc(-c3ccccc3)n2)cc1
  VDR inhibitor: 0%

> COc1ccc(C(=O)N/C(=C\c2ccc3c(c2)OCO3)C(=O)N2CCOCC2)cc1
  VDR inhibitor: 1%

> Cc1ccc(C(=O)N2CCN(Cc3ccc4c(c3)OCO4)CC2)cc1C
  VDR inhibitor: -13%

Screening data: PubChem BioAssay, National Center for Advancing Translational Sciences (NCATS)

These rows are one share of the data, so the mix of outcomes need not match the whole.
